GLA inh pH 4.5: blocks human alpha-galactosidase A at pH 4.5; activity change, negative = inhibition, % at 105 µM; 230,000 tested, under 10 active; purified enzyme, 4-MU-alpha-Gal fluorescence, pH 4.5; P06280; AID 1467; inconclusive = small, poorly fitted or top-dose-only inhibition, or a rising curve; inactive = flat fitted curve, though single readings scatter; no compound was filed as active;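 also: 0% = full activity with enzyme and -100% = basal without enzyme; dose as in the result columns while the protocol names 77 µM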
Rango dissoc inh: inhibition of RanGTP-driven Rango-importin beta dissociation; actives 0.071% (n = 340,000); O95149+P62826; AID 540253; Biochemical FRET Rango-importin beta, RanGTP-induced dissociation; Potency, µM (highest dose often 46.1 µM), without a hit: top-dose activity change, negative = inhibition; active means falling FRET ratio curve, often poorly fitted, with flat reads before Ran was added; inconclusive means other falling curves, or compound fluorescence or quenching; inactive means flat or rising ratio curve;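 also: potency is read from the fitted curve at half-maximal effect; % of control where 0% means no effect; nearly all actives have a fitted effect of over 45% in size; -100% = wells without RanGTP and RCC1; the record marks most hits as doubtful in a second field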
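Compounds sat 5 min at room temperature with 0.1 uM Rango biosensor plus 0.25 uM importin beta, then FRET pre-read. RanGTP-RCC1 (0.6 uM Ran, 2mM GTP, 0.2 uM RCC1) added for 45 min, and the CFP/YFP post-read measured blocked complex dissociation.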
miR-21 FLuc: raises the signal of a miR-21 reporter; 340,000 tested, under 10 active; Potency, µM (top dose mostly 38.3 µM), for inactives: at the top dose reporter change, positive = more light; HeLa miR-21 FLuc reporter, luciferase, 48 h; active = well fitted rising curve with a large enough effect; inconclusive = small, poorly fitted or top-dose-only effect; inactive = no such curve, though single readings can be large or run the other way;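 also: % of control where 0% means no effect; miR-21 action dims this reporter so a rising signal means less miR-21 action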
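Compounds were titrated across several concentrations (up to approximately 40 uM) and incubated 48 hours with HeLa miR-21-FLuc reporter cells (miR-21 target sequence downstream of FLuc, endogenous miR-21). Readout was firefly luciferase luminescence after lytic detection reagent.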
Rango complex inh: prevents formation of the Rango-importin beta complex | Q14974 | Rango CFP/YFP FRET sensor + importin beta, 45 min | Potency, µM (top dose mostly 92.2 µM), without a hit: top-dose inhibition of complex formation | actives 0.031% (n = 340,000) | AID 540263; active = rising FRET ratio curve, often small or poorly fitted; inconclusive = mostly compound fluorescence or quenching in the first reads; inactive = flat curves in all reads;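 also: potency is read from the fitted curve at half-maximal effect; 0% = DMSO wells and 100% = buffer wells lacking importin beta; nearly all actives have a fitted effect of over 15% in size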
Target sequence (Q14974 whole entry, looked up): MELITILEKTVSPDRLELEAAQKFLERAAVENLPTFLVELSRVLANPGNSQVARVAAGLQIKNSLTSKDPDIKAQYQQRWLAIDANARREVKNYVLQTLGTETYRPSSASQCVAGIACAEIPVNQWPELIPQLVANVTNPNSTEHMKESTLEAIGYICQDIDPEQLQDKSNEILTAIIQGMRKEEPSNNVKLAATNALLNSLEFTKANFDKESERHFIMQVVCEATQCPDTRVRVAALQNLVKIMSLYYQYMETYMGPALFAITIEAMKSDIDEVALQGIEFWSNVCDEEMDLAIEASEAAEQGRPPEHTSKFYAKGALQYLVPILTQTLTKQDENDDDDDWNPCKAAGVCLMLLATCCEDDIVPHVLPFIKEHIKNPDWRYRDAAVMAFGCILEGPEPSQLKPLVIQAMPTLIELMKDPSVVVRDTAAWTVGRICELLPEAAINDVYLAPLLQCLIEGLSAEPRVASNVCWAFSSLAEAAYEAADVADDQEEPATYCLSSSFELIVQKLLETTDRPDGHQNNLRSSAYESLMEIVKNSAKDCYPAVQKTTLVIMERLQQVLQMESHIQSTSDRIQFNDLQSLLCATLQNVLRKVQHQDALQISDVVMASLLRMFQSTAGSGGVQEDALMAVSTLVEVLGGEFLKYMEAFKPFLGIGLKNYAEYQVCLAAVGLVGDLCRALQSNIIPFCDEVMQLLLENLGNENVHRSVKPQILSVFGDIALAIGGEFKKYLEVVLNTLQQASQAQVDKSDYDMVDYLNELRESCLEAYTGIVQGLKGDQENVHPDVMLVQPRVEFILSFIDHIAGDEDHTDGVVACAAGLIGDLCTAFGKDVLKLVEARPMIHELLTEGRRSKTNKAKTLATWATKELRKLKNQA
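Inhibition scored from the CFP 486 nm/YFP 530 nm FRET ratio 45 min after adding 0.125 microM importin beta to 50 nM Rango biosensor preincubated 5 min with compound (room temperature, PBS with DTT, Tween-20, BSA). No-importin wells as positive control.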
The depositor's hits bear a star; ? = inconclusive; / = no result given; & = joins results of further samples.

SMILES	GLA inh pH 4.5	miR-21 FLuc	Rango dissoc inh	Rango complex inh
COc1cccc(C(=O)Nc2cc(C(=O)NCc3ccc(C)cc3)ccc2N2CCC3(CC2)CC(c2cccc(Br)c2)=NO3)c1	/	/	5%	-0.8%
COc1ccc(C(=O)NCC(=O)NCC2(N(C)C)CCCCC2)cc1OC	3	-1%	11%	-1.8%
O=C(NC1CCSc2ccccc21)c1cc(S(=O)(=O)N2CCOCC2)ccc1F (configuration not stated)	/	-8%	16%	4.4%
COc1ccc(Cn2nc(-c3ccccc3)c(N3CCCCC3)cc2=O)cc1	-27	9%	1%	2.6%
CC(NC(=O)COC(=O)C1CCN(c2ccc(C(F)(F)F)cn2)CC1)c1ccc(F)cc1 (configuration not stated)	/	/	17%	-1.0%
C[C@H](CO)N1C[C@H](C)[C@@H](CN(C)C(=O)Nc2ccccc2)Oc2c(NC(=O)Nc3ccc(C(F)(F)F)cc3)cccc2C1=O	/	/	3%	-2.4%
CN1CCN(CCNC(=O)c2cn(Cc3ccccc3F)nn2)CC1	-5	-2%	0%	-3.2%
Cc1cc(NC(=O)CCC(=O)N(CC(=O)NC2CCCC2)Cc2ccc(F)cc2)no1	1	-1%	13%	-2.7%
O=[N+]([O-])c1ccc(NC(c2ccccc2)c2ccc3cccnc3c2O)cc1 (configuration not stated)	/	/	10%	1.7%
O=C(COc1ccccc1F)Nc1c2c(nn1-c1ccccc1)CS(=O)(=O)C2	/	-5%	28%	-0.3%
O=c1ccc(NS(=O)(=O)c2ccc(Cl)cc2)cn1Cc1ccc(Cl)c(Cl)c1	-24	-6%	0%	1.5%
Cc1ccc2oc(=O)c3cc(C(=O)NCCCN4CCN(C)CC4)sc3c2c1	/	0%	3%	0.0%
CC(C)(C)c1nc(SCC(=O)Nc2ccc3c(c2)OCCO3)c2ccccc2n1	-1	1%	1%	-3.5%
CCCCc1ccc(S(N)(=O)=O)cc1	1	4%	-6%	0.6%
NC(=O)c1ccccc1NC(=O)c1ccccc1Cl	-2	-15%	0%	-1.4%
CN1OC(COC(=O)c2ccc(Cl)cc2)CC1c1ccccc1 (configuration not stated)	-2	-9%	2%	-0.6%
CCOC(=O)COc1ccc(C(=O)Nc2cccc(Cl)c2C)cc1	-25	0%	4%	0.9%
CS(=O)(=O)N(CC(=O)Nc1ccc(S(=O)(=O)N2CCCC2)cc1)c1ccccc1	4	1%	3%	0.6%
Cc1ccc(OCCCCN2CCCCC2)c(C)c1	/	2%	4%	0.1%
CCCN(C(=O)c1cc(CC)c(C)s1)c1c(N)n(Cc2ccccc2)c(=O)[nH]c1=O	/	/	-14%	-0.2%
O=C(Nc1ccc(S(=O)(=O)N2CCOCC2)cc1)C1COc2ccccc2O1 (configuration not stated)	6	-19%	0%	4.5%
O=C(Cn1cnc([N+](=O)[O-])n1)c1ccc(O)c(O)c1	/	-1%	-6%	-4.6%
CCc1ccc(OCC(=O)NNC(=O)CSc2nnc(-c3ccc(C)cc3)n2C)cc1	-1	-6%	5%	0.3%
C/C(=N\NC(=O)c1ccc(Cl)c(Cl)c1)c1ccccn1	/	22%	-7%	-1.1%
N#Cc1c(NC(=O)c2ccc(-c3ccccc3[N+](=O)[O-])o2)sc2c1CCCC2	-15	-31%	12%	0.2%
Cc1ccc(S(=O)(=O)N2C[C@@H]3[C@H]4CC[C@H](C4)[C@@H]3[C@@H](C)[C@@H]2C2CCCCC2=O)cc1 (some centres not stated)	/	/	-8%	0.5%
O=C(NCc1ccccn1)C(=O)N/N=C/c1ccc2c(c1)OCO2	2	-13%	-16%	0.0%
O=C(NCCSc1ccccc1)c1ccc(Br)cc1	-1	-38%	0%	1.0%
COc1cccc(NCc2cc(=O)oc3cc(-c4ccccc4)c(O)cc23)c1	0	-28%	7%	-0.2%
O=C(C(=O)N1CCCC1)c1c[nH]c2ccccc12	/	-3%	0%	-0.2%
CCOc1ccc(CN(C)C(C)C(=O)NCc2ccccc2)cc1 (configuration not stated)	/	-6%	7%	3.1%
Cc1cc(C(=O)COC(=O)c2n[nH]c(=O)c3ccccc23)c(C)n1C	/	/	7%	-1.0%
COc1ccc2[nH]c(C(=O)O)c(NS(=O)(=O)c3ccc(F)cc3)c2c1	/	-1%	1%	1.9%
CCc1ccccc1NC(=S)N1CCNC(=O)C1CC(=O)OC (configuration not stated)	7	0%	2%	-3.0%
O=C(Cc1ccc(Cl)cc1)Nc1cccc(C(=O)Nc2ccccc2C(=O)O)c1	/	1%	-4%	0.4%
O=C(Cc1csc(N2CCOCC2)n1)N/N=C/c1ccc(Cl)cc1Cl	-1	10%	3%	0.1%
COc1ccccc1/C(C)=N/Oc1cc(N)cc([N+](=O)[O-])c1	/	/	5%	2.3%
CCCNC(=O)NC(=O)CSc1nnc(-c2ccncc2)n1CC	-12	-2%	-15%	?
Cc1cc(N)ccc1N1CCCC1	-4	-12%	8%	-0.5%
Cc1ccc2nc(-c3cccnc3)cc(C(=O)Nc3ccc(F)cc3C)c2c1	7	1%	-3%	4.1%
COC(=O)C(NC(=O)c1ccccc1C(=O)O)c1ccc2ccccc2c1 (configuration not stated)	/	-3%	-6%	0.7%
CN(C)S(=O)(=O)c1cccc(C(=O)NCC(=O)NC2CCN(Cc3ccccc3)CC2)c1	/	0%	0%	0.9%
Cc1cc2[nH]ncc2cc1NC(N)=S	1	3%	15%	-2.7%
Cc1cc(NC(=O)CSc2nnc(-c3ccncc3)n2C)n(-c2ccccc2)n1	-3	2%	0%	3.2%
COc1ccc(NC(=O)c2cc(-c3ccc(C)o3)nc3ccccc23)cc1OC	-9	-14%	-18%	-3.2%
O=C(NCCc1ccccc1)c1nccc2ccccc12	/	/	9%	?
COc1cc(OC)nc(Oc2cc(/C=N/O)ccc2OC)n1	1	18%	5%	-0.4%
O=C1CC(c2ccccc2)CC(=O)C1CS(=O)(=O)c1ccccc1 (configuration not stated)	-11	0%	-4%	3.5%
COc1ccc(Nc2ncnc3nc[nH]c23)cc1OC	-2	-10%	-8%	0.5%
Cc1[nH]c2ccccc2c1C(=O)C(=O)NCCc1c[nH]c2ccccc12	/	11%	-4%	-0.9%
O=C(CCc1ccccc1)Nc1nn[nH]n1	-15	-2%	1%	-3.5%
CC(C)NCC(O)c1ccc(O)c(O)c1 (configuration not stated)	3&-2&-7	-17%	2%	-2.9%
COCCNC(=O)c1cc2cc(Br)cc(Br)c2oc1=O	2	0%	-24%	0.3%
O=S(=O)(c1ccc2oc3ccccc3c2c1)N1CCOCC1	10	-8%	-20%	10.0%
Cc1ccc(S(=O)(=O)N2[C@@H](c3ccc(Cl)cc3)C(C(=O)O)=C[C@H]2CC2CCCC2)cc1	/	/	10%	-3.5%
COc1cc(CC(=O)N2CCC(n3nccc3NC(=O)C3CC3)CC2)cc(OC)c1OC	/	0%	2%	-0.7%

Next section:
SMILES	GLA inh pH 4.5	miR-21 FLuc	Rango dissoc inh	Rango complex inh
O=C(C/C=N\OCc1ccc([N+](=O)[O-])cc1)Nc1ccc(F)cc1F	7	5%	1%	0.1%
COC(=O)c1[nH]c2cccc(OC)c2c1NC(=O)CCN1CCSCC1	2	-1%	0%	-0.2%
CCNc1nc(SC(C)C(=O)Nc2ccccc2)nc(N2CCOCC2)n1 (configuration not stated)	-2	-4%	-12%	-2.5%
Cc1ccc(/C=N/NC(=O)COc2ccccc2-c2ccccc2)cc1	1	22%	1%	7.5%
O=S(=O)(c1ccc(-c2ccccn2)s1)N1CCC2(CC1)OCCO2	0	-2%	-9%	5.2%
CCOC(=O)Cc1csc(SCC(=O)Nc2oc(C)c3c(C)n[nH]c(=O)c23)n1	/	/	-8%	-7.0%
COc1ccccc1Nc1nc(NCCCN(C)C)nc(N)c1[N+](=O)[O-]	-11	13%	5%	1.1%
Nc1ccc2c(C(F)(F)F)cc(C(F)(F)F)nc2n1	?	-12%	-12%	-4.1%
COc1cccc(CNc2ccc(S(N)(=O)=O)cc2)c1OC	1	-6%	3%	-2.0%
CC1CCN(c2ccc(C=O)o2)CC1	-20	-1%	-13%	3.2%
COc1ccc(C2NCCc3c2[nH]c2ccccc32)cc1CN1CCc2cc(OC)c(OC)cc2C1C (configuration not stated)	-11	5%	-11%	?
O=C(NCc1ccccc1)c1ccc(CNc2c(N3CCCC3)c(=O)c2=O)cc1	-3	-1%	16%	-4.9%
O=C(c1ccccc1)c1ccc(N2CCOCC2)c(NC(=O)c2ccco2)c1	-7	10%	2%	-1.2%
COc1ccc(C(=O)Oc2ccc(-c3nnco3)cc2)cc1S(=O)(=O)N1CCOCC1	/	/	9%	-3.0%
COC(=O)c1c(NC(=O)c2ccc(C)o2)sc2c1CCCCC2	-5	-41%	-2%	3.3%
COc1ccc(C(CNC(=O)c2ccccc2SC)N(C)C)cc1 (configuration not stated)	3	-12%	-3%	-1.2%
Cc1noc(C)c1C(=O)Nc1ccc(S(=O)(=O)N2CCC(C)CC2)cc1	/	/	26%	-0.2%
Cc1ccc(OCCC(=O)Nc2ccccc2C(=O)N2CCCCC2)cc1	/	/	16%	7.9%
Cc1cc(Cl)ccc1NC(=S)NCC(C)C	17	-2%	10%	1.2%
Cc1ccc(S(=O)(=O)/C(C#N)=C/c2c(N3CCOCC3)nc3c(C)cccn3c2=O)cc1	-6	0%	?	?
Cc1cccc(NC(=O)/C(C#N)=C\c2cccnc2)c1	0	-6%	-7%	0.5%
CCOc1ccc(/C=C/C(=O)NCCc2ccc(OC)c(OC)c2)cc1	-1	-12%	22%	0.5%
Cc1cc(=O)oc(C)c1C(=O)N1CCCc2ccccc21	12	-10%	-14%	1.6%
CC(=O)N1CCOc2cc(S(=O)(=O)N3CCN(c4ccccc4)CC3)c(Cl)cc21	/	0%	21%	-1.7%
O=C(Nc1cccc(F)c1)C1CCN(C(=O)c2ccco2)CC1	/	-4%	11%	0.1%
COCCCNC(=O)c1c[nH]c2ccc(S(=O)(=O)N(C)c3ccccc3C)cc2c1=O	/	0%	-11%	-3.1%
COc1ccc2[nH]cc(C=O)c2c1	8	2%	9%	2.2%
N#Cc1c(C#N)c(-c2ccccc2)n(-c2ccc(C(=O)O)cc2)c1N	0	-3%	-19%	0.0%
Cc1nc2ncnn2c(C)c1CCC(=O)NCc1ccc2c(c1)OCO2	-13	1%	2%	5.8%
COc1ccccc1NC(=O)NCc1ccc2c(c1)OCO2	-5	-11%	/	/
CC(NC(=O)CSc1ccccc1)c1ccccc1 (configuration not stated)	/	-8%	2%	-1.5%
COc1ccc(C(C)=O)cc1CSc1nnnn1-c1ccc(O)cc1	3	-8%	17%	3.8%
Cc1ccnc(NS(=O)(=O)c2ccc(NC(=O)c3ccc(N4C(=O)CCC4=O)cc3)cc2)n1	12	-2%	6%	-6.9%
Cc1ccc(S(=O)(=O)N(C)C)cc1NC(=O)c1cc(C(C)(C)C)nn1Cc1ccccc1	-3	11%	30%	2.7%
CCN1CCN(C(=O)C(C)Sc2nc3nc(C)cc(C)n3n2)CC1 (configuration not stated)	/	/	-1%	3.3%

Source: PubChem

Only part of the results is shown; count on the stated rates, not on these rows.
